# High-throughput results as filed in PubChem BioAssay.
# KCNQ2 inh: KCNQ2 potassium channel inhibitors, primary screen, cell-based, CHO-K1, FluxOR thallium flux, B-score (AID 2156); 1.1% of 310,000 active; 20 min; active compounds read low; only compounds with negative scores are shown here; some inactives read as strong as hits; O88943; B-score at 10 µM;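 active means fluorescence ratio B-score at most minus 3 library SDs, with starting brightness B-score within 2 library SDs, cut at about -5.5 in these data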
# Target sequence (O88943 whole entry, looked up): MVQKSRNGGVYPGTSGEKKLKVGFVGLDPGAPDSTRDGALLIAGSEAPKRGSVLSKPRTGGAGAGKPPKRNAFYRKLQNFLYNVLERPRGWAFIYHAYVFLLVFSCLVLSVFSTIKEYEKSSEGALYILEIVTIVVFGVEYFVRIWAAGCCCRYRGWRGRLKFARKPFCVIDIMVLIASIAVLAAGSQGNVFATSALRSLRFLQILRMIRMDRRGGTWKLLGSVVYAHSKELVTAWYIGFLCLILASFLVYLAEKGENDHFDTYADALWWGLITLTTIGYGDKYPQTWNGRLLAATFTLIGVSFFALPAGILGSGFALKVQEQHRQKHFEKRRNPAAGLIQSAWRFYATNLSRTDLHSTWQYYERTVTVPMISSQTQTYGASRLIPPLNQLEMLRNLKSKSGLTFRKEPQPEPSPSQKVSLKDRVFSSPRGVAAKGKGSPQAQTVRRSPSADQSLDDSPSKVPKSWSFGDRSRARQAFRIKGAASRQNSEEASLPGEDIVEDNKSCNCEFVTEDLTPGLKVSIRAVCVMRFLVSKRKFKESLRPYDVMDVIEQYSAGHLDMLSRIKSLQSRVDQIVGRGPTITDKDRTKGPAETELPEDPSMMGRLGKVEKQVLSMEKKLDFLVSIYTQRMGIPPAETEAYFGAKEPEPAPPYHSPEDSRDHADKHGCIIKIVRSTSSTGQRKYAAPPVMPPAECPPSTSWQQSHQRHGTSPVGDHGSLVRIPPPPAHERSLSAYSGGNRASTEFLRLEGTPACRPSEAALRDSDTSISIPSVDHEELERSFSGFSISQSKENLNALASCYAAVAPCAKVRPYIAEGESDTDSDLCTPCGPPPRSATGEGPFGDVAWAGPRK
# KCNQ2 inh baseline: further read-out of KCNQ2 inh, marked with its call; B-score; measured here: initial fluorescence intensity artifact check;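 brightness before thallium and not channel activity; 0 = typical well and far values either way flag optical interference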
# An asterisk follows results filed as active; i = inactive.
SMILES,KCNQ2 inh,KCNQ2 inh baseline
COc1cc(Cl)c(C)cc1NC(=O)COc1ccccc1[N+](=O)[O-],i,0.08
COCC1CCN(Cc2nc(-c3cccs3)no2)C1 (stereo unspecified),i,1.57
CCCCCSc1nc(C)c(CC(=O)O)c(=O)[nH]1,i,0.35
COc1ccc(S(=O)(=O)N2CCN(CC(=O)Nc3ccc(F)c(F)c3)CC2)cc1,i,-0.68
CC(NC(=O)CN(C)S(=O)(=O)c1cccc2nsnc12)c1ccccc1 (stereo unspecified),i,-0.56
Cc1cc(C)cc(OCc2nnc(N)s2)c1,i,-1.51
Cc1cccc(OCc2nnc(SCC(=O)O)n2Cc2ccccc2)c1,i,-0.79
Cc1ccc(C)c(NS(=O)(=O)c2cc(C(=O)NCc3ccco3)ccc2C)c1,i,1.61
COCCN(Cc1ccccc1)C(=S)Nc1ccc(Cl)cc1,i,1.02
Cc1cc(C)c2c(C)nn(C3CCCCC3)c2n1,i,-1.24
O=C(Nc1ccc(S(=O)(=O)N2CCCCC2)cc1)c1ccc(CN2CCOCC2)cc1,i,-1.56
CC(C(=O)N(C)C1CCS(=O)(=O)C1)N1C(=O)/C(=C/c2ccco2)SC1=S (stereo unspecified),i,0.42
COc1cccc(/C=C2\SC(=S)N(CCCC(=O)N3CCCC3)C2=O)c1,i,-0.19
CCOC(=O)Cc1csc(NC(=O)CSc2nnc(-c3ccncc3)n2Cc2ccco2)n1,i,0.9
O=C(O)Cc1ccc(NCc2ccccc2Cl)cc1,i,0.62
Cc1nccn1CC(=O)N/N=C/c1cccs1,i,0.4
Cc1ccc(-c2cn3nc(-c4ccccc4)c(-c4ccccc4)nc3n2)cc1,i,1.56
CC(Oc1ccc(Cl)cc1Cl)c1ccnc(N)n1 (stereo unspecified),i,-0.49
O=C(N/N=C/c1ccccc1OCc1ccccc1Cl)c1cccnc1,i,-0.52
Cc1cc(C)c(S(=O)(=O)N2CCCOC2CNC(=O)C(=O)NCCCn2ccnc2)c(C)c1 (stereo unspecified),i,3.56
Cc1nn(-c2ccccc2)c(C)c1/C=N/n1c(-c2ccc(C(C)(C)C)cc2)n[nH]c1=S,i,0.28
Cc1ccc(SC(C)C(=O)NCc2cccnc2)cc1 (stereo unspecified),i,-1.78
Cc1c(C2=CCN(S(=O)(=O)c3ccc(Br)cc3)CC2)c2ccccc2n1C,i,-0.75
C/C(=N\NC(=O)C(=O)Nc1cc(Cl)ccc1Cl)c1ccncc1,i,0.8
C=CCSc1nsc(NC(=O)Nc2ccc(F)cc2)n1,i,0.56
COc1ccc(S(=O)(=O)N2CCOCC2)cc1NC(=O)[C@@H]1CCCN1C(=O)c1cccs1,i,-0.06
CCC(C)C(NC(=O)OCc1ccccc1)C(=O)OCN1C(=O)c2ccccc2C1=O (stereo unspecified),i,-0.19
COc1cc(NC(=O)c2cnc(N)o2)cc(C(=O)Nc2cccc(C(F)(F)F)c2)c1,i,-0.51
COc1ccc(C2=C(C=C(C#N)C#N)C(c3ccccc3C)c3ccccc3O2)cc1OC (stereo unspecified),i,-1.54
CCOC(=O)C1C(=O)CC(O)(c2ccccc2)CC1c1ccccc1 (stereo unspecified),i,-1.14
CCOc1ccc(CCNC(=O)COC(=O)Cc2c[nH]c3ccccc23)cc1OCC,i,0.21
Cn1ncc(Cl)c1C(=O)Nc1nc2ccc(Cl)cc2s1,i,0.55
CN(N=Nc1cccc([N+](=O)[O-])c1)c1cccc([N+](=O)[O-])c1,i,1.2
COc1ccc(-n2c(O)c(/C=N/NS(=O)(=O)c3cccc([N+](=O)[O-])c3)c3ccccc3c2=O)cc1OC,i,0.99
COc1ccc(C2CC(c3ccccc3)=NN2S(=O)(=O)c2ccccc2)cc1 (stereo unspecified),i,0.5
Cc1nc2ccccc2c(=O)n1/N=C/c1ccccn1,i,1.99
Nc1cc(=O)[nH]c(SCC(=O)N2CCCCC2)n1,i,2.13
c1cncc(CNc2c3c(nc4nnnn24)CCCC3)c1,i,0.78
COc1cc2c(cc1OC)CN(Cc1cc(OC)c3c(c1)OCO3)CC2,i,0.99
CC(=O)NC1(C(F)(F)F)C(=O)Nc2c1c(=O)[nH]c(=O)n2CC(C)C (stereo unspecified),i,1.51
COc1ccc(N2C(C)=CS/C2=C(/C#N)c2nnc(N3CCOCC3)n2-c2ccccc2)cc1,i,0.01
COc1ccc(S(=O)(=O)NC2CCCCC2)c(C)c1C,i,-0.66
Cn1c(=O)c2c(nc(Br)n2Cc2ccccc2Cl)n(C)c1=O,i,2.4
COc1ccccc1C(CNC(=O)COc1cc(C)ccc1Cl)N1CCCC1 (stereo unspecified),i,0.54
Cc1ccc(-n2c(SCC(=O)N3CCOCC3)nc(O)c(Cc3ccccc3)c2=O)cc1,i,0.67
O=C(/C=C/c1ccc(F)cc1)c1cc(Br)ccc1O,i,0.54
O=C(c1ccco1)N1C(=O)c2cccc3c(S(=O)(=O)N4CCCC4)ccc1c23,i,-0.72
O=C(Nc1ccc2nc3n(c(=O)c2c1)CCCCC3)c1c(F)ccc([N+](=O)[O-])c1F,i,-1.75
Cc1ccc2ccccc2[n+]1CCCS(=O)(=O)[O-],i,-0.75
CCC(=O)N1CCN(c2ccccc2NC(=O)COc2cc(C)ccc2C(C)C)CC1,i,1.08
CN1C[C@@H]2C(c3ccc(C(F)(F)F)cc3)C3(c4cccnc4)CC2(C3)[C@H]1c1ccccc1 (stereo partly specified),i,1.47
NS(=O)(=O)c1ccc(CCNC(=O)CNC(=O)Cc2cccc3ccccc23)cc1,i,0.14
CCCCOc1ccc(C(=O)N/C(=C/C=C/c2ccccc2)C(=O)O)cc1,i,-1.47
O=C(COc1ccccc1F)Nc1nnc(C2CCCC2)s1,i,-0.01
Cc1ccc(C)n1-c1c(C(=O)NN)cnn1-c1ccccc1,i,1.11
CCc1cc(=O)oc2cc(OC(=O)CN3C(=O)NC4(CCCC4)C3=O)ccc12,i,0.61
COc1ccc(Cc2nc3ccc(C(=O)NC(C)Cc4ncccc4C)cc3o2)cc1OC (stereo unspecified),i,-0.81
COc1ccc(NC(=O)c2ccc(COc3ccccc3Br)o2)c(OC)c1,i,-0.31
COC(=O)c1cc(=O)n(Cc2cccs2)c(=NCc2cccs2)s1,i,0.87
O=C(Oc1cccc(-n2cnnn2)c1)c1ccccc1Cl,i,0.08
# Remaining list, next part.
SMILES,KCNQ2 inh,KCNQ2 inh baseline
O=C(O)CC12CC3CC(C1)CC(n1cncn1)(C3)C2,i,-1.39
O=C(O)CCC(=O)Nc1nc(-c2ccccc2)cs1,i,-0.76
COCCCN(C(=O)c1ccco1)c1nc(-c2cc(OC)ccc2OC)cs1,i,0.75
CC1CCCN(S(=O)(=O)c2ccc3c(c2)c(=O)nc2ccccn23)C1 (stereo unspecified),i,-0.27
Cc1cc(NC(=O)CSc2ncccc2C(=O)O)no1,i,1.04
CSc1nc(-c2ccc(Cl)cc2)nn1S(=O)(=O)c1ccc(Cl)cc1,i,0.1
COc1ccc2c(c1OC)C(=O)N1C2SC(C)(C)[C@H]1C(=O)NC1CC1 (stereo partly specified),i,-1.06
Oc1ccccc1CNc1cccc2cccnc12,i,-1.47
CCOc1ccc(N2CC(C(=O)N3CCCCC3)CC2=O)cc1 (stereo unspecified),i,0.92
CCOC(=O)C(NC(=O)Nc1cccc(C)n1)(OCC(F)(F)F)C(F)(F)F (stereo unspecified),i,0.98
COc1ccc(-c2ccc(-c3noc(C)n3)c(OC)n2)cc1,i,0.02
CCOC(=O)C1=C(O)/C(=C\c2cc(C)n(-c3ccc(F)cc3)c2C)N=C1C,i,0.67
CC1C(C(=O)Nc2ccccc2)CCCC1(C)C(=O)O (stereo unspecified),i,-0.01
CCC(=O)Nc1ccccc1C(=O)NC1CCCCC1,i,-1.4
CNC(=O)CC1C(=O)N(Cc2ccccc2)C(=S)N1NC(=O)c1cccc(F)c1 (stereo unspecified),i,0.22
O=C(O)CC/C(=C\c1ccc2c(c1)OCO2)c1nc2ccccc2s1,i,4.1
Cc1ccc(C(=O)N/N=C\c2cccc(OC(=O)c3cccc(F)c3)c2)cn1,i,-0.96
COc1ccc(COc2cc(-c3cccc(OC)c3)nc3ccc(NC(C)=O)cc23)cc1,i,-0.32
COc1ccc(C2CC(c3cccs3)=NN2c2ccc(C=O)cc2)cc1 (stereo unspecified),i,2.6
O=c1c2ccccc2nc2ccc(N3CCOCC3)nn12,i,0.86
COc1ccc(/C=N/NC(=O)Cn2nc([N+](=O)[O-])cc2C)c(OC)c1OC,i,-0.11
COc1ccc(S(=O)(=O)N2CCCCC2)cc1NC(=O)c1cccnc1SC,i,-0.48
O=C(COc1cccc(C(F)(F)F)c1)Nc1ccc(S(=O)(=O)N2CCCCC2)cc1,i,-0.71
C=CCNC(N)=S,i,-0.79

# Some of the entries so far, as labelled records.
> O=c1c2ccccc2nc2ccc(N3CCOCC3)nn12
- KCNQ2 inh: i
- KCNQ2 inh baseline: 0.86

> COc1ccc(/C=N/NC(=O)Cn2nc([N+](=O)[O-])cc2C)c(OC)c1OC
- KCNQ2 inh: i
- KCNQ2 inh baseline: -0.11

> COc1ccc(S(=O)(=O)N2CCCCC2)cc1NC(=O)c1cccnc1SC
- KCNQ2 inh: i
- KCNQ2 inh baseline: -0.48

> O=C(COc1cccc(C(F)(F)F)c1)Nc1ccc(S(=O)(=O)N2CCCCC2)cc1
- KCNQ2 inh: i
- KCNQ2 inh baseline: -0.71

# Next entries
SMILES,KCNQ2 inh,KCNQ2 inh baseline
Cc1ccc(-n2cc(CNCCc3cscn3)c(-c3ccc(F)cc3)n2)cc1,-6.78*,2.25*
COc1ccccc1CNC(=O)CCS(=O)(=O)c1ccc2c(c1)CCN2C(C)=O,i,0.47
CC(C)=CCc1cc2c(=O)c3c(O)c4c(cc3oc2c(O)c1O)OC(C)C4(C)C (stereo unspecified),-8.55*,-0.29*
CCOCCc1c(O)nc(SCCOc2ccc(C)c(C)c2)[nH]c1=O,i,-1.62
CCc1ccc(CN(C)C(=O)CCc2nnc(-c3ccc(-c4ccccc4)cc3)o2)nc1,i,0.01
c1ccc(CN(Cc2ccccc2)c2c3c(nc4ncnn24)CCC3)cc1,i,-2.04
C=CCN(C(=O)c1csnn1)C(C(=O)NCc1ccc(F)cc1)c1cccs1 (stereo unspecified),i,0.22
CN1C(=O)C2(Nc3ccccc3-c3nc4ccccc4n32)c2ccccc21 (stereo unspecified),i,1.27
O=C(O)CCCc1ccc2ccc3cccc4ccc1c2c34,i,-1.17
CCc1ccc(NC(=O)[C@H](Cc2ccccc2)NC(=O)C2CCN(C(=O)[C@@H](N)CC(C)C)CC2)cc1,i,0.5
CCOc1ccc(S(=O)(=O)NCc2ccco2)c2ccccc12,i,0.51
O=C(c1ccc2oc(CCCc3ccccc3)nc2c1)N1CCCC1,i,1.03
CCN(Cc1ccncc1)C(=O)CCc1nnc(CCC2CCCCC2)o1,i,-0.08
CCOC(=O)C1(Cc2cccc(Cl)c2)CCCN(C(=O)c2cnn(CC)c2)C1 (stereo unspecified),i,-0.45
CN(c1cccc(Cl)c1)S(=O)(=O)c1cccc(C(=O)Nc2nc3ccccc3[nH]2)c1,i,-0.58
CNC(=O)CN(c1cccc(Br)c1)S(C)(=O)=O,i,0.02
O=C(CSCC(=O)Nc1nccs1)Nc1ccccc1,i,-0.18
O=C(CCc1ccccc1)Nc1c(F)c(F)c(F)c(F)c1F,i,0.16
CN(C)/C=C/C(=O)c1ccc(C(F)(F)F)cc1F,i,0.88
CC(C)NCC(O)(c1ccc(Cl)cc1)c1ccc(Cl)cc1,i,1.98
CCNC(=O)[C@H]1O[C@@H](n2cnc3c(N)nc(NCCc4ccc(CCC(=O)O)cc4)nc32)[C@H](O)[C@@H]1O,i,-1.42
CC(NC(=O)Nc1nccs1)(C(F)(F)F)C(F)(F)F,i,0.62
COC(=O)c1ccc(CNC(=O)c2sccc2-c2ccccc2)cc1,i,0.64
COc1ccc(NC(=O)c2ccc(-c3ccc([N+](=O)[O-])cc3)o2)cc1OC,i,0.27
O=C(O/N=C(/c1ccccc1)c1ccncc1)c1ccc(F)cc1,i,-0.76
O=C(Cc1ccccc1)Nc1ccc(C(=O)Nc2ccc(O)cc2)cc1,i,0.38
Cn1c(SCC(=O)NCc2ccc(F)cc2)nc2ccccc21,i,-0.09
CCOC(=O)c1cnc2c(C)cc(Cl)cc2c1N1CCN(C)CC1,i,-1.11
CCc1cc(C(c2ccc(F)cc2)N2CCOCC2)c(NC(=O)c2ccccc2)s1 (stereo unspecified),i,-0.1
CC(C)Cc1cc(C(=O)N2CCCC(C(=O)c3cc(F)ccc3F)C2)n(C)n1 (stereo unspecified),i,0.36
Cc1cc(C)nc(NN=C2CCCC2)n1,i,-0.66
O=C1N(c2cccc3ccccc23)C(c2ccccc2)N2CCCN12 (stereo unspecified),i,1
O=C1CSC2(C(=O)N3CCCc4cccc2c43)N1c1cccc(C(F)(F)F)c1 (stereo unspecified),i,-2.28
Cc1ccc(C(=O)Nc2cccc(-c3cnc4ccccc4n3)c2)cc1,i,-0.13

# Whole records as entered above. Order of screens: KCNQ2 inh, KCNQ2 inh baseline
# Record of O=C1N(c2cccc3ccccc23)C(c2ccccc2)N2CCCN12 (stereo unspecified) = i, 1
# Record of O=C(O/N=C(/c1ccccc1)c1ccncc1)c1ccc(F)cc1 = i, -0.76
# Record of Cc1ccc(C(=O)Nc2cccc(-c3cnc4ccccc4n3)c2)cc1 = i, -0.13
# Record of CC(C)Cc1cc(C(=O)N2CCCC(C(=O)c3cc(F)ccc3F)C2)n(C)n1 (stereo unspecified) = i, 0.36
# Record of Cc1cc(C)nc(NN=C2CCCC2)n1 = i, -0.66

# Some of the compounds tested, so the mix of outcomes need not match the whole.
